# Rango dissoc inh – inhibitors of RanGTP-induced Rango-importin beta complex dissociation. O95149+P62826. Biochemical FRET Rango-importin beta, RanGTP-induced dissociation. Potency, µM (doses to about 46.1 µM), for the others: at the highest dose activity change, negative = inhibition. 340,000 compounds, 0.071% hits; active means falling FRET ratio curve, often poorly fitted, with flat reads before Ran was added; inconclusive means other falling curves, or compound fluorescence or quenching; inactive means flat or rising ratio curve;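 also: potency is read from the fitted curve at half-maximal effect; % of control where 0% means no effect; nearly all actives have a fitted effect of over 45% in size; -100% = wells without RanGTP and RCC1; the record marks most hits as doubtful in a second field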
#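 Recombinant Rango FRET biosensor (EYFP–snurportin 1 IBB–cerulean CFP10) at 0.1 uM premixed with 0.25 uM importin beta in PBS, 1 mM DTT, 0.02% Tween-20, 0.1% BSA. Compound added 5 min; RanGTP-RCC1 (0.6 uM Ran, 2 mM GTP, 0.2 uM RCC1) then triggers release, read at 45 min.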
# GLA inh pH 4.5 – blocks human alpha-galactosidase A at pH 4.5; P06280; purified enzyme, 4-MU-alpha-Gal fluorescence, pH 4.5; activity change, negative = inhibition, % at 105 µM; 230,000 tested, under 10 active; AID 1467; inconclusive = small, poorly fitted or top-dose-only inhibition, or a rising curve; inactive = flat fitted curve, though single readings scatter; no compound was filed as active;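 also: 0% = full activity with enzyme and -100% = basal without enzyme; dose as in the result columns while the protocol names 77 µM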
# Rango complex inh – inhibitors of Rango-importin beta complex formation; Rango CFP/YFP FRET sensor + importin beta, 45 min; Potency, µM (titrated, usually from 92.2 µM), inactives show at the top dose inhibition of complex formation; 340,000 compounds, 0.031% hits; AID 540263; active = rising FRET ratio curve, often small or poorly fitted; inconclusive = mostly compound fluorescence or quenching in the first reads; inactive = flat curves in all reads;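 also: potency is read from the fitted curve at half-maximal effect; 0% = DMSO wells and 100% = buffer wells lacking importin beta; nearly all actives have a fitted effect of over 15% in size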
# Target sequence (Q14974 whole entry, looked up): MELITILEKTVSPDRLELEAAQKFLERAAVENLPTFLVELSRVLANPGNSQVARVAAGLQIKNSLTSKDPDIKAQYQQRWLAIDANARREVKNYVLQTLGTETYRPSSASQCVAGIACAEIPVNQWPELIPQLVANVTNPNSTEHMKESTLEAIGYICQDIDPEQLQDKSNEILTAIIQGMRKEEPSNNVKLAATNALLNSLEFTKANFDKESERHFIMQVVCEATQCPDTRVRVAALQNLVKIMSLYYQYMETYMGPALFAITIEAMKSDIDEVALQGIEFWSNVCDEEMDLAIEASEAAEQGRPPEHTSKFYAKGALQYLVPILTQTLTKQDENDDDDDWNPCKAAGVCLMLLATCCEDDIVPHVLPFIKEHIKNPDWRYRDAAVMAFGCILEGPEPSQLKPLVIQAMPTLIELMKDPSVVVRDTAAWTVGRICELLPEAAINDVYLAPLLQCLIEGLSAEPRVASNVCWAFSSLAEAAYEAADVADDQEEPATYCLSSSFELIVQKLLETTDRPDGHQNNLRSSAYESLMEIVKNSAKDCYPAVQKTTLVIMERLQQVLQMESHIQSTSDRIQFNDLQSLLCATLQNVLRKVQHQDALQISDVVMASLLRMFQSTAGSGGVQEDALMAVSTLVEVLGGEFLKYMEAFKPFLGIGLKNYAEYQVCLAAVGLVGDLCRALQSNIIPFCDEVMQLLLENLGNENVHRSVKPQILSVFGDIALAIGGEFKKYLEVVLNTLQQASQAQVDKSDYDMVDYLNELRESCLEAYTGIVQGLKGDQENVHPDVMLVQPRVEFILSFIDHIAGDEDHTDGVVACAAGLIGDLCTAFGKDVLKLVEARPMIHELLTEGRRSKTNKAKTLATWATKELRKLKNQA
#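 Inhibition scored from the CFP 486 nm/YFP 530 nm FRET ratio 45 min after adding 0.125 microM importin beta to 50 nM Rango biosensor preincubated 5 min with compound (room temperature, PBS with DTT, Tween-20, BSA). No-importin wells as positive control.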
# miR-21 FLuc – raises the signal of a miR-21 reporter; HeLa miR-21 FLuc reporter, luciferase, 48 h; Potency, µM (titrated, usually from 38.3 µM), for inactives: at the top dose reporter change, positive = more light; 340,000 tested, under 10 active; active = well fitted rising curve with a large enough effect; inconclusive = small, poorly fitted or top-dose-only effect; inactive = no such curve, though single readings can be large or run the other way;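 also: % of control where 0% means no effect; miR-21 action dims this reporter so a rising signal means less miR-21 action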
#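 Luminescence from a firefly luciferase reporter carrying a miR-21 binding site downstream, stably expressed under a CMV promoter in HeLa cells that make miR-21 endogenously, reports miRNA modulation after 48 h compound exposure up to approximately 40uM final.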
# * = called active by the depositor; u = inconclusive; x = no result given; & = joins results of further samples. The list is partial (hit frequency here may not be typical).
SMILES,Rango dissoc inh,GLA inh pH 4.5,Rango complex inh,miR-21 FLuc
CCOC(=O)c1cnn(CCOC(=O)c2ccc(OC)cc2)c1NC(=O)c1ccc(OC)cc1,-11%,-8,-0.3%,-9%
COc1ccccc1C(=O)Nc1ccc2oc(-c3ccc(F)cc3)nc2c1,17%,1,1.4%,-14%
COc1ccccc1C(=O)Nc1cccc(-c2cn3ccsc3n2)c1,x,-16,x,-29%
COc1ccccc1OCc1nnc(SCCN2CCOCC2)o1,-7%,-7,-0.5%,-8%
O=C(/C=C/c1ccccc1)Nc1nnc(-c2ccco2)o1,18%,-12,-2.4%,-2%
CC(=O)Nc1ncc(Cc2cccc(Cl)c2)s1,10%,u,-3.4%,-2%
Cc1cccc2sc(NNC(=O)C3=COCCO3)nc12,3%,1,0.0%,-20%
O=C(CSc1ccc(-c2ccccn2)nn1)N1CCc2ccccc21,7%,-8,-1.6%,-3%
CC(=O)N1c2ccc(S(=O)(=O)N3CCC(C(=O)NC4CCCCC4C)CC3)cc2CC1C (stereo unspecified),26%,x,-0.1%,-2%
CN(Cc1ccccc1)C(=O)CSc1nnc(-c2ccco2)n1-c1ccccc1,18%,-2,-5.7%,-3%
COc1ccccc1C(=O)N1CCN(c2ccc(N3CCOCC3)nn2)CC1,-24%,x,u,x
CC1CCC(C(C)C)C(=O)/C1=C/c1ccc(N)cc1 (stereo unspecified),-28%,-4,u,-38%
CC(C)CNC(=O)C(=O)NCC1OCCN1S(=O)(=O)c1cccs1 (stereo unspecified),-7%,x,4.5%,x
O=C(O)[C@H](Cc1ccccc1)Nc1ccc([N+](=O)[O-])cn1,3%,x,1.2%,1%
CCc1ccc(S(=O)(=O)NCCc2csc(-c3ccccc3)n2)s1,-11%,2,-3.5%,8%
CCOc1cc([N+](=O)[O-])cc(/C=C2/NC(=O)N(Cc3ccccc3F)C2=O)c1O,-9%,-4,u,-3%
CCOC(=O)c1cc2c(c(CSc3nc4ccccc4c(=O)n3Cc3ccco3)c1)OCOC2,-9%,0,0.0%,-1%
O=C(NC(=S)Nc1ccc(F)cc1)c1ccc2c(c1)OCCO2,3%,1,0.8%,-51%
COC(=O)CCc1nc2cc(Cl)ccc2n(Cc2ccccc2)c1=O,15%,-2,u,0%
CNc1ccc(S(=O)(=O)NCC(=O)OC(C)C(=O)N(C)Cc2ccccc2)cc1[N+](=O)[O-] (stereo unspecified),7%,x,2.5%,x
Cc1ccc(C(=O)CCC(=O)Nc2cccc(C(F)(F)F)c2)cc1,-2%,-17,-0.3%,-1%
COc1ccc(CC(=O)N2CCC(n3nccc3NC(=O)C3CCOC3)CC2)cc1 (stereo unspecified),6%,x,0.3%,0%
Cc1ccc(S(=O)(=O)N(C)C)cc1NC(=O)C(C)Sc1ccccc1 (stereo unspecified),-14%,-9,-0.4%,-3%
C[N+]1(CC(=O)OCCCc2ccccc2)CCCC1,18%,1,0.0%,0%
COCCN(C(=O)COC(=O)CCC(=O)c1ccc(Cl)cc1)c1c(N)n(Cc2ccccc2)c(=O)[nH]c1=O,14%,x,u,-5%
CC1=C(C(=O)OCc2ccccc2)C(c2ccc(N(C)C)cc2)NC(=O)N1 (stereo unspecified),1%,3,u,-13%
N#CCCN(C(=O)COC(=O)c1cc(=O)c2ccccc2o1)c1ccccc1,3%,x,5.1%,x
Cc1ccc(/C=N/Nc2nc(N3CCCCC3)nc(N3CCCCC3)n2)o1,-5%,2,1.1%,8%
CC(=O)Nc1ccccc1NC(=O)C/C(C)=N/NC(=O)c1cccnc1,-14%,x,-0.6%,0%
CCN1C/C(=C/c2cccc([N+](=O)[O-])c2)C(=O)/C(=C/c2cccc([N+](=O)[O-])c2)C1,9%,1,6.7%,u
O=C(O)c1ccccc1C(=O)Nc1ccc(S(=O)(=O)N2CCCC2)cc1,-8%,x,2.4%,1%
CC(C)NC(=O)NC1C2CC3CC(C2)CC1C3 (stereo unspecified),-12%,0,-0.7%,-14%
C=CCn1c(=NC(=O)c2sc3ccccc3c2Cl)sc2cc(S(N)(=O)=O)ccc21,-16%,11,0.7%,-3%
O=[N+]([O-])c1ccc(CSc2ccc(S(=O)(=O)N3CCCC3)cn2)cc1,-8%,x,6.0%,x
C=CCN(c1ccccc1OC)S(=O)(=O)c1cccc(C(=O)OCC(=O)N2CC(C)OC(C)C2)c1 (stereo unspecified),u,x,u,x
CN(C)/C=N/c1c(C#N)cnn1-c1ccc(C(F)(F)F)cn1,-9%,5,0.2%,-4%
CC(=O)Nc1ccc(/C=C/c2nc3ccccc3o2)cc1,6%,x,u,-32%
Cc1ccc(NC(=O)NNc2cccc(Cl)n2)cc1,-3%,-2,1.0%,-8%
Cc1onc(-c2ccccc2)c1-c1ccnn1S(=O)(=O)c1ccc(Cl)cc1,0%,-2,-2.2%,2%
O=C(/C=C/c1ccco1)NC(=S)Nc1ccccn1,-7%,-4,-1.0%,-54%
Cc1cc(=O)oc2cc(OCC(=O)Nc3ccc(S(=O)(=O)N(C)C)cc3)ccc12,-24%,15,-0.1%,2%
Cn1c(-c2ccc3ccccc3n2)[n+](C)c2ccccc21,15%,8,-3.7%,-6%
Cc1nnc(SCC(=O)N2c3ccccc3CC2C)s1 (stereo unspecified),0%,-1,-2.7%,-12%
CCCn1c(C)cc(C(=O)COC(=O)CN=C2NS(=O)(=O)c3ccccc32)c1C,0%,7,0.2%,-8%
Cc1cc(-c2nnnn2-c2cc(Cl)cc(Cl)c2)no1,-12%,2,1.6%,-3%
CNC(=S)N1CCC(NC(=O)C23CC4CC(CC(C4)C2)C3)CC1,3%,-14,2.8%,-4%
COCCn1c(SCC(=O)Nc2cc(C(C)(C)C)nn2-c2ccccc2)nc2ccccc2c1=O,1%,1,1.7%,-5%
COc1nccnc1NS(=O)(=O)c1ccc(N/C=C2\CCCCC2=O)cc1,-4%,-12,-3.5%,-3%
Cc1onc(-c2ccccc2)c1C(=O)NC(=S)NNC(=O)c1cc(-c2ccc(F)cc2)n[nH]1,2%,4,0.3%,8%
CCc1nn(CC(=O)NCCCc2ccccc2)c(=O)c2cc3c(OC)cccc3n12,0%,x,0.5%,-1%&-5%
CCn1nnnc1SCC(=O)N(C)C1CCS(=O)(=O)C1 (stereo unspecified),-15%,x,-2.3%,x
Cc1ccccc1C(=O)Nc1ccnn1C1CCN(C(C)Cc2ccccc2F)CC1 (stereo unspecified),5%,x,-0.7%,21%
O=C(CNCc1ccccn1)Nc1ccc([N+](=O)[O-])cc1C(=O)Nc1ccccc1F,0%,x,3.0%,-2%
N#CC1C=Cc2ccccc2N1C(=O)c1ccccc1 (stereo unspecified),10%,-8,-4.1%,20%
O=C(Nn1c(-c2ccccc2)nc2ccccc2c1=O)c1cccs1,-17%,5,9.0%,0%
O=C(N/C=C/n1cnc2cc(C(F)(F)F)ccc21)c1ccccc1F,16%,0,-2.2%,-12%
C=CC[C@@H](CC(=O)OC(C)(C)C)C(=O)OC[C@@H]1CCCN1C(=O)[C@H](CC=C)CC(=O)NCCO,16%,x,1.9%,x
CCOc1ccc(S(=O)(=O)N2CCN=C2c2ccccc2)cc1,-14%,x,-1.8%,18%
COc1ccc(-c2cn(CCC(=O)NCc3ccc(C)cc3)c(-c3ccncc3)n2)cc1,-10%,x,-3.3%,-14%
O=S(=O)(c1ccccc1)N1CN(c2ccc(F)cc2F)c2nc3ccccc3nc21,-2%,x,0.0%,x
# New compounds follow
SMILES,Rango dissoc inh,GLA inh pH 4.5,Rango complex inh,miR-21 FLuc
Cc1ccc(/C=N/NC(=O)c2ccc(Br)o2)s1,-10%,-9,9.4%,-31%
CN(C)CCCN1C(=O)c2oc3ccc(Cl)cc3c(=O)c2C1c1cccnc1 (stereo unspecified),0%,2,3.0%,-10%
Cc1onc(-c2c(Cl)cccc2Cl)c1NC(=O)NNc1c(Cl)cncc1Cl,0%,-4,-1.7%,1%
COc1ccc(C2=NN(CC(=O)NCC(OC)OC)C(=O)CC2)cc1,-2%,x,1.5%,1%
COc1cc(C(C#N)N2N=C(c3ccccc3)CC2c2ccccc2)ccc1O (stereo unspecified),-16%,11,-1.2%,-30%
O=c1cc(Nc2ccc3c(c2)OCCO3)[nH]c(=O)n1-c1ccc(Br)cc1,10%,-2,-0.8%,2%
CN(C)CCNC(=S)Nc1ccc(F)c(F)c1F,15%,7,-0.1%,-7%
COC(=O)C1C(O)=C(C=Nc2ccccc2)C(=O)CC1(C)C (stereo unspecified),u,-5,-7.8%,-1%
Cc1sc2nc(CN3CCCC3)nc(NCc3ccncc3)c2c1C,36%,-6,-3.7%,-12%
CC(=O)c1ccc(NC(=O)Nc2cccc(Cl)c2)cc1,-7%,-4,3.2%,10%
Cc1ccc(S(=O)(=O)N2CCN(C3CCC(c4ccccc4)CC3)CC2)cc1 (stereo unspecified),x,1,x,2%
CN(CC(=O)Nc1ccc(OC(F)(F)F)cc1)C1CCCCC1,-3%,-5,1.3%,-10%
Cc1c(CCOC(=O)C23CC4CC(CC(C4)C2)C3)sc[n+]1CC#N,3%,-2,4.3%,0%
O=C(CCc1ccc(S(=O)(=O)NC2CCCCC2)cc1)NCc1ccccn1,-8%,4,0.0%,-65%
CC1CCC(NC(=O)C(Cc2ccccc2)n2cccc2)CC1 (stereo unspecified),0%,-8,-2.1%,-8%
COc1ccc(N2C(=NC(=O)C3CC3)SC3CS(=O)(=O)CC32)cc1Cl (stereo unspecified),-27%,x,2.4%,-1%
CC(C)(O)[C@H]1Cc2cc3ccc(=O)oc3cc2O1,-3%,x,2.0%,-24%
COc1ccc(NC(=O)C2CCCO2)cc1Cl (stereo unspecified),-2%,3,-0.5%,-23%
CC(C)=CCC[C@](C)(O[C@@H]1O[C@H](CO[C@@H]2OC[C@H](O[C@@H]3OC[C@@H](O)[C@H](O)[C@H]3O)[C@H](O)[C@H]2O)[C@@H](O)[C@H](O)[C@H]1O)C1CC[C@]2(C)C1[C@H](O)CC1[C@@]3(C)CC[C@H](O)C(C)(C)C3[C@@H](O)C[C@]12C (stereo partly specified),10%,x,-1.6%,x
CCOC(=O)c1[nH]c2ccc(OCC)cc2c1NC(=O)CN1CCN(c2ccccc2)CC1,23%,-14,-0.1%,-21%
O=C1NC[C@H](c2ccccc2)N(CCc2cc(C(F)(F)F)cc(C(F)(F)F)c2)C1=O,u,-1,-0.5%,12%

# Of the compounds above, these contain an aryl thioether with sulfur outside any ring:
SMILES,Rango dissoc inh,GLA inh pH 4.5,Rango complex inh,miR-21 FLuc
COc1ccccc1OCc1nnc(SCCN2CCOCC2)o1,-7%,-7,-0.5%,-8%
O=C(CSc1ccc(-c2ccccn2)nn1)N1CCc2ccccc21,7%,-8,-1.6%,-3%
CN(Cc1ccccc1)C(=O)CSc1nnc(-c2ccco2)n1-c1ccccc1,18%,-2,-5.7%,-3%
CCOC(=O)c1cc2c(c(CSc3nc4ccccc4c(=O)n3Cc3ccco3)c1)OCOC2,-9%,0,0.0%,-1%
Cc1ccc(S(=O)(=O)N(C)C)cc1NC(=O)C(C)Sc1ccccc1 (stereo unspecified),-14%,-9,-0.4%,-3%
O=[N+]([O-])c1ccc(CSc2ccc(S(=O)(=O)N3CCCC3)cn2)cc1,-8%,x,6.0%,x
Cc1nnc(SCC(=O)N2c3ccccc3CC2C)s1 (stereo unspecified),0%,-1,-2.7%,-12%
COCCn1c(SCC(=O)Nc2cc(C(C)(C)C)nn2-c2ccccc2)nc2ccccc2c1=O,1%,1,1.7%,-5%
CCn1nnnc1SCC(=O)N(C)C1CCS(=O)(=O)C1 (stereo unspecified),-15%,x,-2.3%,x

# High-throughput results from PubChem BioAssay.
